# GIV Gai3 FP – inhibitors of GIV GBA-motif binding to rat Galpha-i3; 210,000 tested, 0.42% active; Galpha-i3/FITC-GIV peptide fluorescence polarization, 90 min; active compounds read low; scaled: aluminum fluoride 0%, vehicle 100%; AID 1224905; percent of control (FP), % (no concentration beside the values); P08753;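 active = replicate mean at 85% of control or lower, very high polarization wells dropped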;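 note: wells of about 15 µL received 100 nL stock; the first replicate is given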
# Target sequence (P08753 whole entry, looked up): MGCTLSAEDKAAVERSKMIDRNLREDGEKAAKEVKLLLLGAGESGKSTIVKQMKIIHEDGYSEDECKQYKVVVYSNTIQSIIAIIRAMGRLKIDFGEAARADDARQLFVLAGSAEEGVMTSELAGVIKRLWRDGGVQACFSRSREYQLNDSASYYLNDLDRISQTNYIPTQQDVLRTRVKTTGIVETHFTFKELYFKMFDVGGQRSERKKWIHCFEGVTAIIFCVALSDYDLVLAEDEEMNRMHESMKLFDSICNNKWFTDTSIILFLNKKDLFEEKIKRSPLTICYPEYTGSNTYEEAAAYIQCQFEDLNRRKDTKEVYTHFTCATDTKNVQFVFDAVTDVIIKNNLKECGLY
# HCMV UL50-53 inh – disrupts HCMV UL50-UL53 complex binding | HTRF UL50-UL53 interaction, normalized percent inhibition | inhibition, % (test concentration not listed) | 190,000 tested, 0.15% active;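 active = both replicates at 50% or more, plus weaker picks with an unusually low signal ratio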;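 note: stock transfer was 100 nL into about 20 µL; 0% = negative control wells and 100% = wells with untagged competitor protein; inactives centre near -12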
# Sa growth 42C – S. aureus growth inhibition; 170,000 tested, 0.53% active; AID 720641; S. aureus RN4220 growth, OD600, 20 h, 42 °C; active compounds read low; relative growth, % (test concentration not listed);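 active = growth at 42 °C up to 50% and 20 or more points under that at 30 °C, or under 10% at both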;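 note: 300 nL library stock went into each well; scaled to the means of positive and negative controls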
# Sa growth 42C second temp – recorded beside Sa growth 42C, whose call it bears; relative growth, %; measured here: growth at 30 °C;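 optical density after 20 h as mean of two plates; 100% = untreated growth and lower means inhibition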
# * marks the source's active call; other numbers are inactive results; / = not tested or not shown. Hits appear at their usual frequency; any-hit rate near 0.82%.
# Results follow in this order: GIV Gai3 FP, HCMV UL50-53 inh, Sa growth 42C, Sa growth 42C second temp
CCC(=O)NC1(C(F)(F)F)C(=O)NC(C)=C1C(=O)OC (stereo not drawn)
  98, 3, 97, 101
CCCCn1c(N)c(N(C)C(=O)CSc2nnc(C)n2-c2ccccc2OC)c(=O)[nH]c1=O
  /, -10, 101, 82
O=C(CSC1=NCCS1)NC(c1ccccc1)c1ccccc1
  /, -6, 112, 84
Cc1ccc(S(=O)(=O)c2c(Nc3cc(C)ccc3C)sc(C(=O)c3ccc4c(c3)OCO4)c2N)cc1
  112, /, 104, 108
Cc1ccc(S(=O)(=O)c2[nH]c(-c3ccccc3)nc2SCC(=O)O)cc1
  101, -16, 105, 89
CC(SC12CC3CC(CC(C3)C1)C2)C(=O)O (stereo not drawn)
  107, -32, 114, 99
CCCN1/C(=C(\C#N)C2=NS(=O)(=O)c3ccccc32)N(C)c2ccccc21
  /, -20, 101, 88
O=C(Cn1nc(-c2ccccc2)ccc1=O)NC1CC1
  107, -16, 104, 93
O=[N+]([O-])c1cccc(S(=O)(=O)Nc2cccc(-c3cn4ccccc4n3)c2)c1
  102, -46, /, /
O=C(NCCO)c1cc[n+](CC(=O)c2cccs2)cc1
  106, /, 91, 101
O=C1CC(NC(=O)c2ccc(Cl)cc2)C(=O)N1 (stereo not drawn)
  /, -95, 102, 86
C=CCN1C(=O)C2Cc3c([nH]c4ccccc34)C(c3ccc(O)cc3)N2C1=S (stereo not drawn)
  211, -10, 96, 69
O=C(NC1CC1)C1CCN(C(=O)c2cccn2-c2cccnc2)CC1
  109, -7, /, /
Cc1cc2ccccn2c1C(=O)c1ccccc1
  /, -55, 115, 88
CCOC(=O)c1c(C)c(C(=O)Nc2cccc(C)c2)c(C)n1C
  106, 2, 95, 96
CCc1ccc(-c2nc3cc(NC(=O)c4ccc(C)c(C)c4)ccc3o2)cc1
  101, 10, 109, 100
CCc1nc2ccccc2nc1N1CCCC1
  94, -23, 77, 86
O=C(CCc1nc2ccccc2c(=O)[nH]1)NC1CCCCC1
  /, -8, 83, 90
Nc1nc2c(c(Nc3ccccc3)n1)C(=O)CCC2
  106, /, 76, 76
Cc1ccccc1NC(=O)c1sc2nc(N3CCOCC3)c3c(c2c1N)CC(C)(C)OC3
  101, -20, 82, 93
Cc1cc(C(=O)NC2CCCC2)c2c(C)nn(-c3ccccc3)c2n1
  102, 12, /, /
Cc1nn(-c2ccccc2)c(C)c1Sc1n[nH]c(=O)[nH]c1=O
  104, /, 105, 83
O=C(CSc1n[nH]c(=O)n1Cc1ccco1)c1ccc(F)cc1
  99, -1, 85, 83
CCOC(=O)c1c(C)n(C)c2ccc(OCC(O)Cn3c(C)nc4ccccc43)cc12 (stereo not drawn)
  96, -17, /, /
N#Cc1ccc(C(=O)N2CCN(c3nc4ccc(F)cc4s3)CC2)cc1
  102, /, 134, 91
Cc1cc(=O)oc2cc(OC(=O)CSc3nc(Cc4ccccc4)cc(=O)[nH]3)ccc12
  106, -50, 90, 82
O=C1C2(CCC13COC(c1ccco1)OC3)COC(c1ccco1)OC2 (stereo not drawn)
  102, -13, 123, 116
O=C(Cc1ccccc1)NCc1ccc(-n2cccc2)cc1
  101, -12, 95, 100
Cc1ccc2nc(-c3ccc(N4C(=O)CC(N5CCC(C)CC5)C4=O)cc3)sc2c1 (stereo not drawn)
  97, -15, /, /
CC(NC(=O)C(C)N1CCN(S(=O)(=O)c2ccc(F)cc2)CC1)c1ccccc1 (stereo not drawn)
  /, 2, 120, 83
COc1ccc(-c2nc(C)c(CCNC(=O)C(=O)Nc3cc(C)cc(C)c3)s2)cc1OC
  102, /, 97, 86
CCCOc1ccc(CNC(=O)Cn2ncn3c(cc4sc(CC)cc43)c2=O)cc1
  102, -10, 107, 79
Cc1nc2ncnn2c(C)c1CCC(=O)Oc1ccccc1
  102, -8, 111, 96
Cc1ccc(Nc2nc(CSc3nnc(-c4ccccc4)o3)cs2)cc1
  /, -4, 120, 91
Clc1ccccc1OCc1nn2c(-c3ccccn3)nnc2s1
  105, -8, /, /
Cc1cc(C)cc(NC(=S)N2CCC(N(C)CC3CCCO3)CC2)c1 (stereo not drawn)
  100, -25, 101, 87
COC(=O)c1ccc(NC(=O)c2cccc3c2C(=O)N(C2CCCCC2)C3)cc1
  110, -3, 97, 86
O=C1NC(=Nc2ccccc2Cl)S/C1=C\c1ccc(O)c([N+](=O)[O-])c1
  107, -21, /, /
CCS(=O)(=O)c1ccc(O)c(N=Cc2ccncc2)c1
  /, -19, 96, 81
CC(=O)N1c2ccccc2C(=O)C1Cc1ccccc1 (stereo not drawn)
  103, 2, 100, 98
O=C(O)CC(C(=O)Nc1ccc(Cl)cc1)N1CCCCCC1 (stereo not drawn)
  104, -18, 92, 80
O=C(CSCC(=O)NC1CCCC1)Nc1ccccc1
  101, -18, 94, 85
CCOC(=O)C(Cc1ccccc1)C(=O)Nc1ccccc1C (stereo not drawn)
  /, -10, 99, 84
CCOC(=O)N1CCC(NC(=O)CN2N=C(c3ccc(Cl)cc3)CCC2=O)CC1
  106, -40, 100, 88
O=C(COC(=O)c1ccc(NS(=O)(=O)c2cccs2)cc1)Nc1ncc(Br)s1
  /, -19, 103, 90
CCC(C)(C)N=C(NC#N)Nc1cccnc1
  /, -94, 81, 85
Cc1oc2ncn(CC(=O)N3CCOCC3)c(=O)c2c1C
  103, -32, /, /
CC(=O)Nc1nc(-c2cccnc2)cs1
  101, -8, 90, 88
COc1ccc(OC)c(NC(=O)Cc2c(C(=O)O)[nH]c3ccc(Cl)cc23)c1
  105, -2, 122, 67
Oc1ccccc1C1Nc2ccccc2-c2nc3ccccc3n21 (stereo not drawn)
  107, /, 114, 88
CCCNC(=O)C1CC(c2ccc(F)cc2)=NO1 (stereo not drawn)
  106, /, 112, 99
O=C(Cn1c(=O)nc(-c2ccccc2)c2ccccc21)NCc1ccc(F)cc1
  103, /, 85, 91
O=C(CCSc1ccc(Cl)cc1)N1CCN(c2ccc(O)cc2)CC1
  /, -12, 104, 93
Cc1ccccc1NC(=O)Nc1ccccc1C
  /, -9, 87, 86
CCc1ccccc1Nc1ccc2cc(S(=O)(=O)N3CCOCC3)ccc2n1
  101, -11, /, /
Cc1ccc(C)c(N2CCN(S(=O)(=O)c3ccc(F)c(C(=O)Nc4ccc(Cl)cc4Cl)c3)CC2)c1
  104, /, 108, 86
COc1ccc(NC(=O)C(=O)c2cc(C)n(-c3ccc(C)cc3)c2C)cc1Cl
  96, 0, 92, 86
Cc1ccc(NC(=O)c2oc3ccc4c(c3c2C)C(=O)CC(C)(C)O4)cc1
  110, /, 106, 100
CCOC(=O)C1CCCN(C(=O)c2ccc3c(c2)sc2nc(-c4cccc(OC)c4)cn23)C1 (stereo not drawn)
  116, /, 81, 75
C=CCN(CC=C)S(=O)(=O)c1ccc(C(=O)Nc2nnc(COC)o2)cc1
  107, /, 22, 27

# The list goes on:
# Results follow in this order: GIV Gai3 FP, HCMV UL50-53 inh, Sa growth 42C, Sa growth 42C second temp
CCN1CCC(N(Cc2ccco2)C(=O)Nc2ccc(OC)cc2)CC1
  102, -29, 94, 88
COc1ccc(C2=NN(CN3C(=O)C(=O)c4cc(Br)ccc43)C(c3cccc([N+](=O)[O-])c3)C2)cc1 (stereo not drawn)
  100, -31, /, /
NC(CO)c1ccccc1 (stereo not drawn)
  98, -10, 95, 90
CSc1nsc(SCC(=O)N2CCCc3ccccc32)n1
  101, /, 88, 85
COc1ccccc1S(=O)(=O)N(C)S(=O)(=O)c1cc(Cl)ccc1Cl
  /, -5, 85, 97
O=C(Nc1ccccc1-c1nc2ccccc2[nH]1)c1ccc(F)cc1
  93, -24, /, /
Cc1cc(C)n(CC(=O)NC2CCCCC2)c(=O)c1S(=O)(=O)c1ccc(Br)cc1
  108, -2, /, /
Cc1nn(CCC(=O)Nc2ccccc2Br)c(=O)c2nn(-c3ccccc3)c(C)c12
  103, /, 112, 87
CCc1c(O)nc(SC(C)C(=O)Nc2cccc(Cl)c2)[nH]c1=O (stereo not drawn)
  108, -8, 107, 100
CC(C)C1Cc2c(sc3c2c(=O)n(-c2ccccc2)c2nncn32)CO1 (stereo not drawn)
  106, -4, 102, 93
COC(=O)c1ccc2c(=O)n(CCCCCC(=O)NCCc3ccc(Cl)cc3)c(=O)[nH]c2c1
  100, /, 116, 72
N/C(=N\O)c1cccc(C(F)(F)F)c1
  106, 3, 102, 96
CCS(=O)(=O)c1ncc(Cl)c(C(=O)NCc2ccccc2)n1
  100, -19, 66, 43
Cc1ccc(S(=O)(=O)Nc2cccc(C)c2)cc1
  99, -33, 131, 99
CC(C)c1ccc(CNC(=O)CCc2ccccc2)cc1
  100, /, 138, 96
CCC(C)NC(=O)CCNS(=O)(=O)c1cc(C(=O)OC)n(C)c1 (stereo not drawn)
  106, -18, /, /
CC(=O)NC(NC(C)=O)C(=O)c1ccccc1
  98, -20, 103, 92
COc1cc(CCC(=O)NCc2ccco2)on1
  102, -16, 91, 80
Cc1cccc(N2C(=O)CC(Sc3ncn[nH]3)C2=O)c1 (stereo not drawn)
  104, -18, 41, 10
CC(Oc1ccccc1)c1ccnn1C(=O)Nc1ccccc1 (stereo not drawn)
  101, 1, /, /
Cc1cc2nc3c(=O)[nH]c(=O)[nH]c3nc2cc1N=Cc1c(O)n(Cc2ccccc2)c(=O)[nH]c1=O
  93, -34, 101, 85
Cc1ccccc1/C(N)=N\O
  /, -35, 95, 88
Cc1nc2cc(-c3ccccc3)nn2c(C)c1CCC(=O)N1CCCCC1
  105, -1, 109, 89
CC1CCCN(c2nc3ncnc(SCC(=O)NCCC4=CCCCC4)c3s2)C1 (stereo not drawn)
  106, -6, /, /
O=C(O)c1c(-c2ccccc2)oc2ccc(OCc3ccc(Cl)c(Cl)c3)cc12
  102, -90, 26, 21
CC(=O)N1CCc2c(sc3c2c(=O)n(-c2ccc(F)cc2)c(=O)n3Cc2ccc(C#N)cc2)C1
  102, -9, 107, 83
CCCCC(CC)C(=O)Nc1c2c(nc3c1CCC3)CCCC2 (stereo not drawn)
  97, /, 97, 78
COC(=O)c1c(NC(=O)N2CCCC2c2ccc(C)cc2)sc2c1CCCC2 (stereo not drawn)
  101, -11, /, /
COC1C2C3CC4C5C3C1C5C(O)(c1ccccc1)C42 (stereo not drawn)
  98, -6, 108, 73
CCc1c(C)nc2ncnn2c1Sc1ccccc1NC(=O)Nc1ccc2c(c1)OCCO2
  104, -35, /, /
COCc1cc(=O)oc2cc(NS(C)(=O)=O)ccc12
  100, -8, 88, 81
Cc1ccc2[nH]c(CSc3nnc(NC(=O)COc4ccc(F)cc4)s3)cc(=O)c2c1
  102, /, 110, 80
CCOCCOc1cccc2oc(C(=O)OCC)cc(=O)c12
  103, -41, 98, 88
O=C(Cn1ncc2c([nH]c3ccccc32)c1=O)N1CCc2ccccc21
  103, -25, 92, 86
O=C(CN1C(=O)C2C3C=CC(C3)C2C1=O)NCC1COc2ccccc2O1 (stereo not drawn)
  99, 2, 96, 88
Cc1ccc2nc(NC(=O)c3ccc(S(=O)(=O)N4CCc5ccccc54)cc3)sc2c1
  107, -26, /, /
COc1ccc(C(=O)NCc2cc3ccccc3n2C)cc1
  100, -13, 88, 84
CC(CNC(=O)c1nnc(Cc2ccc(F)cc2Cl)o1)c1ccccc1 (stereo not drawn)
  102, -10, 102, 88
O=C1COc2ccc(C(=O)COC(=O)c3ccc4c(c3)C(=O)N(Cc3ccco3)C4=O)cc2N1
  /, -24, 76, 92
CN1C(=O)c2cccc(NC(=O)CSc3ccc(F)cc3)c2C1=O
  101, -35, 111, 91
CCCC(=O)Nc1ccc(S(=O)(=O)Nc2nc(C)cc(C)n2)cc1
  103, -5, /, /
Cc1cc(C(=O)N2CCCCC2)c2c(=O)n(CC(=O)N3CCCc4ccccc43)c(=O)n(C)c2n1
  109, -23, /, /
COC(=O)c1scc(-c2ccc(C)cc2)c1S(=O)(=O)Nc1cc(C)ccc1OC
  102, /, 80, 43

# Quoted from the listing, seven compounds:
# Results follow in this order: GIV Gai3 FP, HCMV UL50-53 inh, Sa growth 42C, Sa growth 42C second temp
Cc1ccc2[nH]c(CSc3nnc(NC(=O)COc4ccc(F)cc4)s3)cc(=O)c2c1
  102, /, 110, 80
CCOCCOc1cccc2oc(C(=O)OCC)cc(=O)c12
  103, -41, 98, 88
O=C(Cn1ncc2c([nH]c3ccccc32)c1=O)N1CCc2ccccc21
  103, -25, 92, 86
O=C(CN1C(=O)C2C3C=CC(C3)C2C1=O)NCC1COc2ccccc2O1 (stereo not drawn)
  99, 2, 96, 88
Cc1ccc2nc(NC(=O)c3ccc(S(=O)(=O)N4CCc5ccccc54)cc3)sc2c1
  107, -26, /, /
COc1ccc(C(=O)NCc2cc3ccccc3n2C)cc1
  100, -13, 88, 84
CC(CNC(=O)c1nnc(Cc2ccc(F)cc2Cl)o1)c1ccccc1 (stereo not drawn)
  102, -10, 102, 88
